Assay outcomes (PubChem)
KCNQ2 pot – enhances the rat KCNQ2 potassium channel; AID 2239; B-score at 10 µM; 310,000 compounds, 0.54% hits; CHO-K1 KCNQ2, FluxOR thallium flux fluorescence; active compounds read high; O88943;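 active = fluorescence ratio B-score at least 3 SD of library B-scores, with initial fluorescence B-score within 3 SD, cut at about 5.3 in these data; same plate scores as AID 2156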;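 note: B-score of peak minus minimum over baseline fluorescence ratio after K+ and Tl+ stimulus; positive B-score means potentiation of KCNQ2 with more thallium influx and brighter signal; only the inactives scoring about 0 or higher are listed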
Target sequence (O88943 whole entry, looked up): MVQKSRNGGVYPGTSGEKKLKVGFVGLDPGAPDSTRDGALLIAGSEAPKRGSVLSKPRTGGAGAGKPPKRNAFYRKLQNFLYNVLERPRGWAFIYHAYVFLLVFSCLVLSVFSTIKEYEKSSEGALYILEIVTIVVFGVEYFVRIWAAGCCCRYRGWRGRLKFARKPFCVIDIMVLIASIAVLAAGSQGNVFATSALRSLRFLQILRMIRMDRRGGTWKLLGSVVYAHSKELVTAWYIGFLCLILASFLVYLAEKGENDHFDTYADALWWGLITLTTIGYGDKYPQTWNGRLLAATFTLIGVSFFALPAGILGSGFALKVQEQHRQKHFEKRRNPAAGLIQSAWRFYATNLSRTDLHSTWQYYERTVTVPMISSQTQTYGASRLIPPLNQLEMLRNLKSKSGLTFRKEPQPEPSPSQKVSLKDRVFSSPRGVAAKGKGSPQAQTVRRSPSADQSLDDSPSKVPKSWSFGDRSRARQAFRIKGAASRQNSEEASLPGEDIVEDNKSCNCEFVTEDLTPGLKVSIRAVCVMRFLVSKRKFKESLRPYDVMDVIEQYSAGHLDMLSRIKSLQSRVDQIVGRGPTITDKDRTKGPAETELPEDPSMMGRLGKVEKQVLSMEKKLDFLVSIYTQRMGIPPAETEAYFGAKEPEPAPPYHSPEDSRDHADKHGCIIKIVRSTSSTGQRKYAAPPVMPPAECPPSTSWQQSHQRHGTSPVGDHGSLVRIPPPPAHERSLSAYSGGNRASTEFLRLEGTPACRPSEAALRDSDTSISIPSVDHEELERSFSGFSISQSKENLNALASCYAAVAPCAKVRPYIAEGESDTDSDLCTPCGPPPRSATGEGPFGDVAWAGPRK
KCNQ2 pot baseline – second read-out of KCNQ2 pot, no call of its own (marks repeat the call); B-score; compound at 10 µM; measured here: initial fluorescence intensity artifact check;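 brightness before thallium and not channel activity; 0 = typical well and far values either way flag optical interference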
* = called active by the depositor; nt = not tested or not shown.

Values in the order – KCNQ2 pot baseline | KCNQ2 pot
O=C(O)c1nn(CCOc2ccccc2F)c(=O)c2ccccc12
 : -1.1 | 1.1
O=C(NC1CCCC1)C1CCCN1C(=O)Nc1ccccc1Cl (stereo not given)
 : 0.2 | 0.4
NS(=O)(=O)c1ccc2nc(NC(=O)C3=COCCO3)sc2c1
 : -1.2 | 0.05
CC(=O)N1CCc2cc(S(=O)(=O)CCC(=O)N3CCN(c4ccccc4)CC3)ccc21
 : 1 | 0.49
O=C(/C=C/c1cccc(Br)c1)Nc1nn[nH]n1
 : -0.08 | 0.95
CC(C)NC(=O)CCCN1C(=O)c2ccccc2Sc2ncccc21
 : 0.04 | 1.2
Cc1ccc(NC(=S)N2CCN(CCN3C(=O)c4cccc5cccc(c45)C3=O)CC2)cc1
 : 0.04 | 0.34
CC(=O)c1cccc(NC(=O)NC(C)C2CCCO2)c1 (stereo not given)
 : -0.34 | 0.08
O=C(O)C1CC(c2ccc(F)cc2)=NO1 (stereo not given)
 : -2.3 | 0.35
CCOC(=O)C1(Cc2ccccc2)CCCN(Cc2ccc(OCCO)cc2)C1 (stereo not given)
 : -1.1 | 0.09
Cc1ccc2c(c1)C(=O)OC1(O)C3C4C=CC(C4)C3C(=O)N21 (stereo not given)
 : -0.06 | 0.8
O=C(COc1ccccc1F)N1CCCc2ccccc21
 : -3 | 0.68
Cc1cc2cc(CCNS(=O)(=O)c3ccc(F)cc3)c(=O)[nH]c2cc1C
 : -0.76 | 0.09
NS(=O)(=O)c1ccc(N/N=C/C=C/c2ccccc2[N+](=O)[O-])cc1
 : 1.6 | 1.7
CC(=O)Cc1nsc(Nc2ccc(Cl)cc2)n1
 : -0.74 | 1.2
CC1CC(=O)C=C(O)C1C(=O)OC(C)(C)C (stereo not given)
 : -1.1 | 0.14
C=CCNC(=S)NNC(=O)COc1ccc2cc(Br)ccc2c1
 : -0.32 | 0.04
COC(=O)CCC(=O)OC1(C)C(=O)C2=CN(Cc3ccc4c(c3)OCO4)C(c3ccc(OC)cc3)=CC2=C(Br)C1=O (stereo not given)
 : -1.2 | 0.25
Cc1ccc(F)cc1NC(=O)CCc1c(C)nn(-c2ccc(N3CCCCC3)nn2)c1C
 : -1.2 | 0.03
CC(C)Sc1n[nH]c(=O)n1-c1ccccc1
 : -2.5 | 0.38

(continued)
Values in the order – KCNQ2 pot baseline | KCNQ2 pot
O=C(NC1CCS(=O)(=O)C1)c1cccc(S(=O)(=O)N2CCCCC2)c1 (stereo not given)
 : 0.27 | 1.3
CCOc1ccc(S(=O)(=O)N2CCN(CC(O)COc3cccc([N+](=O)[O-])c3)CC2)cc1 (stereo not given)
 : -2 | 0.19
COC(=O)C(CC(C)C)N1CCC(=O)c2ccccc2S1(=O)=O (stereo not given)
 : 0.72 | 0.37
CCCc1c(C)c2cc(C)ccc2[nH]c1=O
 : -0.65 | 0.03
Cc1ccc2[nH]c(=O)c(CN(CCCN3CCOCC3)C(=O)NC3CCCCC3)cc2c1
 : 1.7 | 0.17
COc1ccc(NC(C)c2ccccc2)cc1 (stereo not given)
 : 0.55 | 0.01
COc1ccc(/C=N/NC(=O)c2ccncc2)cc1COc1ccc(NC(C)=O)cc1
 : -0.64 | 0.46
Nc1c(C(=O)Nc2ccc(F)cc2)sc(=S)n1-c1ccccc1F
 : 0.38 | 0.24
CCCOc1ccc(C(=O)NC(=S)NCc2cccnc2)cc1
 : -0.28 | 1.4
CC(=O)Nc1cc(C(F)(F)F)ccc1OCCOc1ccccc1
 : 0.63 | 0.51
O=C(NCCC1=CCCCC1)C1CCC(CNc2c(N3CCCC3)c(=O)c2=O)CC1 (stereo not given)
 : -1.3 | 0.49
Cc1onc(-c2ccccc2Cl)c1C(=O)Nc1cccc2nsnc12
 : 0.62 | 0.33
COCCCn1c(-c2cccc(Cl)c2)nc2c1c(=O)[nH]c(=O)n2Cc1ccccc1
 : 1 | 0.83
COC(=O)c1ccc(OC(=O)/C=C/c2ccco2)cc1
 : -0.08 | 1.2
COc1cccc(CNC(=O)Cc2c(C(=O)O)[nH]c3ccccc23)c1
 : 0.95 | 0.67
CC(=O)Nc1cc(NC(=O)C2C3C=CC(C3)C2C(=O)O)ccc1Cl (stereo not given)
 : 0.01 | 0.28
N/C(=N\OC(=O)c1cccs1)c1cccc([N+](=O)[O-])c1
 : -3.1 | 2.5
COc1ccc(C(=O)NCCN2C(=O)S/C(=C\c3cccnc3)C2=O)cc1[N+](=O)[O-]
 : -2.8 | 0.55
CCN1CCN(C(=O)C2(NC(=O)Nc3cccc(F)c3)CCCCC2)CC1
 : 2.1 | 0.03
COc1ccccc1C1NC(=O)NC(C)=C1C(=O)OC1CCCC(C)C1 (stereo not given)
 : 0.09 | 0.52

An excerpt from above in order of formula weight, lowest first:
Values in the order – KCNQ2 pot baseline | KCNQ2 pot
COC(=O)c1ccc(OC(=O)/C=C/c2ccco2)cc1
 : -0.08 | 1.2
COc1cccc(CNC(=O)Cc2c(C(=O)O)[nH]c3ccccc23)c1
 : 0.95 | 0.67
COC(=O)C(CC(C)C)N1CCC(=O)c2ccccc2S1(=O)=O (stereo not given)
 : 0.72 | 0.37
Cc1onc(-c2ccccc2Cl)c1C(=O)Nc1cccc2nsnc12
 : 0.62 | 0.33
Cc1ccc2[nH]c(=O)c(CN(CCCN3CCOCC3)C(=O)NC3CCCCC3)cc2c1
 : 1.7 | 0.17
CCOc1ccc(S(=O)(=O)N2CCN(CC(O)COc3cccc([N+](=O)[O-])c3)CC2)cc1 (stereo not given)
 : -2 | 0.19

Next section:
Values in the order – KCNQ2 pot baseline | KCNQ2 pot
COc1ccc(-c2noc(CCCC(=O)Nc3cccnc3)n2)cc1OC
 : -1.1 | 0.95
C=CCNC(=S)NNC(=O)c1ccc(OCCC)cc1
 : 0.13 | 0.74
CC(C)c1nc2oc3c(NCc4cccnc4)ncnc3c2c2c1CCC2
 : -0.42 | 0.17
Cc1ccc(S(=O)(=O)Cn2nnnc2CN2CCN(Cc3ccc4c(c3)OCO4)CC2)cc1
 : 2.5 | 0.71
CC(C)c1nnc(NC(=O)CCC(=O)N2CCN(C3c4ccccc4-c4ccccc43)CC2)s1
 : -0.02 | 2.8
COC(=O)C1C(=O)CC(C)(O)C(C(=O)OC)C1c1ccccc1F (stereo not given)
 : -2.5 | 0.39
O=C(NNS(=O)(=O)c1ccc(F)cc1)c1cc2ccccc2cc1O
 : -0.48 | 2.1
Cc1c(/C=N/O)c2ccccn2c1C(=O)c1ccc(F)cc1
 : -1.4 | 1.3
O=C1c2cccnc2C(Nc2ccc(Cl)cc2)N1Cc1cccs1 (stereo not given)
 : -0.21 | 0.52
O=C(Cn1c(-c2ccccc2)noc1=O)NCc1ccccc1
 : -0.04 | 0.46
N#C/C(=C/c1cc(Cl)c(O)c(Cl)c1)C(=O)N1CCCCC1
 : 0.57 | 1.6
O=C(NCCSc1ncc(-c2ccc(F)cc2)[nH]1)c1ccco1
 : -0.12 | 0.55
CCCC(=O)Nc1cc(-c2nc3ncccc3o2)ccc1Cl
 : -0.46 | 0.88
O=S(=O)(Cc1cc(-c2ccc(Cl)cc2)no1)c1ccccc1
 : -0.64 | 0.48
COc1cccc(NC(=O)Cn2c3ccc(OC)cc3c3nc4n(c(=O)c32)CCS4)c1
 : -1.6 | 0.23
Cc1cc(C)c[n+](CC(=O)c2ccccc2)c1
 : -1.1 | 0.59
CC(C)(C)NC(=O)Nc1ccccc1C(N)=O
 : -1.8 | 1.2
Cc1nccn1CC1CCc2c(c3ccccc3n2C)C1=O (stereo not given)
 : nt | 0.54
N#Cc1cc(Sc2ccccn2)c([N+](=O)[O-])cc1C#N
 : -0.96 | 1.1
O=C(Nc1nnc(-c2ccccc2)s1)c1ccccc1O
 : -2.2 | 1.7

Next results:
Values in the order – KCNQ2 pot baseline | KCNQ2 pot
COc1ccc(/C(O)=C2/C(=O)C(=O)N(CC3CCCO3)C2c2ccc(O)c(OC)c2)cc1 (stereo not given)
 : 0.42 | 0.01
CCCCOc1ccccc1C1NC(=O)CCC1[N+](=O)[O-] (stereo not given)
 : -0.29 | 0.39
CC(=O)Nc1ccc(NC(=O)c2ccc(COc3ccccc3Br)o2)cc1
 : 0.33 | 0.53
O=c1c2c(nc3c(-c4cccc5ccccc45)c[nH]n13)CCC2
 : 0.56 | 1.6
CC(=O)Nc1ccc(N2C(C(C)=O)=NN(c3ccccc3)C2c2cccs2)cc1 (stereo not given)
 : 0.01 | 0.02
CC1=C[C@@H](C)[C@@H](c2ccc(C(F)(F)F)cc2)OC1=O
 : 0.42 | 1.7
CCOCCCNc1nc2c(c(=O)n(C)c(=O)n2C)n1CCCc1ccccc1
 : -0.75 | 3.1
O=C(c1ccc(O)cc1)c1ccc(C(=O)O)c(C(=O)O)c1
 : -1.1 | 1.9
CC(C)(C)n1cnc2cc(NC(=O)c3cccs3)ccc21
 : -0.44 | 0.76
O=C(CN1CCC(O)CC1)N1c2ccccc2C=Cc2ccccc21
 : 0.2 | 1.1
CCOc1cc(S(=O)(=O)NCCCN2CCOCC2)c(C)cc1C
 : 1.7 | 0.78
CCOC(=O)C(C)Sc1nnc(-c2c[nH]c3ccccc23)n1C (stereo not given)
 : -0.42 | 3.1
NS(=O)(=O)c1ccc(-n2ncc3c(=O)[nH]c(SCC(=O)Nc4nccs4)nc32)cc1
 : -0.98 | 1
O=c1[nH]c2cccnc2n(CCNc2ncc(C(F)(F)F)cc2Cl)c1=O
 : 1.2 | 2.3
COc1cc2nc(CN(C)Cc3ccc(SC)cc3)[nH]c(=O)c2cc1OC
 : -0.8 | 0.08
CC(=O)Nc1ccc(NC(=O)Cc2ccc(S(=O)(=O)N3CCCCC3)s2)cc1
 : 0 | 2.9
COc1cc(S(=O)(=O)N2CCC(c3nc4ccccc4s3)CC2)ccc1S(=O)(=O)NC1CCCC1
 : 0.72 | 1.9
CC(=O)Nc1ccc(NC(=O)[C@@H](NC(=O)c2cccc(C)c2)C(C)C)cc1
 : 0.05 | 1.4
Cc1c(Cl)cnc(NC(=O)COC(=O)c2cccc(S(=O)(=O)N3CCc4ccccc4C3)c2)c1Cl
 : 0.02 | 0.62
Cn1c(NCCCN2CCOCC2)nc2c1c(=O)n(Cc1ccc(Cl)cc1Cl)c(=O)n2C
 : -0.43 | 0.11

Going on with the list:
Values in the order – KCNQ2 pot baseline | KCNQ2 pot
CCOC(=O)C(NC(=O)c1ccccc1)=C1C=C(C)OC(C)=C1
 : -1.4* | 6.8*
COc1cccc(NC(=O)Cn2c(SCC(=O)N3CCOCC3)nc3ccccc32)c1
 : 1.2 | 0.42
Cc1ccc(-c2csc(N3CCN(c4ccc5nc(-c6ccncc6)n(CCN6CCCCC6)c5c4)CC3)n2)cc1
 : -4 | 1.1
O=S(=O)(NC1CCCCC1NCc1ccco1)c1ccc(Cl)cc1 (stereo not given)
 : -1.1 | 1.4
CC(C)(C)OC(=O)NCCC(=O)N/N=C/c1ccc2nccnc2c1
 : -0.15 | 0.22
Cc1cccc(N2CCN(C(=O)c3ccc4c(c3)NC(=O)C(CSCc3ccc(F)cc3)N4)CC2C)c1 (stereo not given)
 : 0.65 | 0.7
CCN1CCN(C(=O)C2CCN(S(=O)(=O)c3ccc4c(c3)NC(=O)C(C)S4)CC2)CC1 (stereo not given)
 : -0.18 | 0.76
COc1ccc2c(c1)-c1c(sn(-c3ccc(OC)c(OC)c3)c1=S)C(C)(C)N2
 : -0.23 | 5
COc1ccc(C(NC(=O)c2ccccc2F)NC(=O)c2ccccc2F)cc1
 : 0.37 | 0.06
COc1ccccc1/C=C/C=N/NC(=O)c1ccncc1
 : -1.6 | 0.04
COCCCNC(=O)c1ccc2c(=O)n(Cc3ccccc3OC)c(=S)[nH]c2c1
 : 0.41 | 0.74
CCc1ccc(NC(=O)C2CCN(S(=O)(=O)c3cccs3)CC2)cc1
 : -0.4 | 1.5
CC(=O)N(c1ccccc1)c1nc(/C=C/C(=O)O)cs1
 : -0.43 | 0.1
CCc1c(C)nc(N)n2c(SCC(=O)Nc3ccccc3OC)nnc12
 : 0.03 | 0.53
COc1ccc([C@@H]2CC(=O)c3c(O)cc(O[C@@H]4O[C@H](CO[C@@H]5O[C@@H](C)[C@H](O)[C@@H](O)[C@H]5O)[C@@H](O)[C@H](O)[C@H]4O)cc3O2)cc1O
 : -0.09 | 0.4
CC(C)C(=O)NCCc1nc(-c2ccc(Cl)cc2)no1
 : 2.8 | 0.92
CCCCn1c(-c2csc3ccccc23)n[nH]c1=S
 : -0.22 | 0.12
O=C(CCl)NCCN1C(=O)S/C(=C\c2cccnc2)C1=O
 : 0.25 | 0.22
COc1ccc(C2C(C(=O)c3ccc(C)o3)=C(O)C(=O)N2CC2CCCO2)cc1OC (stereo not given)
 : -1.2 | 0.52
Oc1cccc2c(NC(=S)Nc3ccc(SC(F)F)cc3)cccc12
 : -0.09 | 0.56

Remaining list, next part
Values in the order – KCNQ2 pot baseline | KCNQ2 pot
COc1ccc(C(=O)C2CCCN(C(=O)c3cccnc3OC)C2)cc1F (stereo not given)
 : -2.5 | 0.19
Cc1cc(NS(=O)(=O)c2ccc(NC(=O)Cc3cccs3)cc2)no1
 : -1.4 | 0.12
Cc1cccc(NC(=O)CCCNC(=O)c2ccc(Cl)cc2)n1
 : -0.03 | 0.95
O=[N+]([O-])c1ccc2c(c1)nc1n2CCCCC1
 : 0.98 | 1.6
O=C(CN1C(=O)NC2(CCCC2)C1=O)OCc1ccc(Cl)cc1Cl
 : 0.05 | 0.72
CC1(C)C[C@H](O)[C@@]23C[C@@H](OC2=O)[C@]2(C)C(=CCC4[C@@]5(C)CC[C@H](O)C(C)(C)C5CC[C@]42C)[C@@H]3C1 (stereo not given in full)
 : 0.35 | 0.73

An excerpt. The share of hits here may be higher or lower than overall.
